Beta2AR agonist: beta2AR agonists driving receptor internalization, primary screen, cell-based, FAP fluorogen, flow cytometry; 0.43% of 340,000 active; response, % (test concentration not listed); AID 504454, 2011; Am2.2-beta2AR cells; reference of the scale not given here;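 active means response above a set limit, near 3 SD of response in nonfluorescent compounds, cut at about 42% in these data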;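 further: stock transfer was 100 nL into about 11 µL; a reference agonist was the positive control; negative values mostly stem from fluorescent compounds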
Target sequence (P07550 whole entry, looked up): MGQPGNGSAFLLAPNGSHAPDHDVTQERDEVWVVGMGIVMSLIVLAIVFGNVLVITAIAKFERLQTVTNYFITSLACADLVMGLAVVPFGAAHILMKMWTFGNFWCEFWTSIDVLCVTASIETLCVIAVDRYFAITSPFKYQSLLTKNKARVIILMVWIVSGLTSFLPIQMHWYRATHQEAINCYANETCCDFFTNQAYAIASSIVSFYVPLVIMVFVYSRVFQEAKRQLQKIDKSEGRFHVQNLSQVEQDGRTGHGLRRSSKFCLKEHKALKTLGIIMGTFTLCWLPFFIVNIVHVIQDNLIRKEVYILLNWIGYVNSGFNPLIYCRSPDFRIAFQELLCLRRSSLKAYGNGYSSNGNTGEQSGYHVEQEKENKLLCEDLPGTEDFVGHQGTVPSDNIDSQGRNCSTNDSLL
RanGTP-Impb inh: inhibitors of RanGTP-importin-beta interaction, primary screen, biochemical, FRET, CFP-Ran, YFP-importin-beta, homogeneous. Ran GTPase (GTP-bound) - importin-beta complex. cell-free CFP-Ran/YFP-importin-beta FRET ratio. inhibition, % (no concentration beside the values). 1.1% of 300,000 active. AID 2216, 2009;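 active means most replicates above 15%; inconclusive means exactly half above 15%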;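 further: 0% = DMSO wells and 100% = Ran loaded with GDP instead of GTP; wells of about 40 µL received 100 nL stock; the first replicate is given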
T cruzi inh: inhibitors of intracellular T. cruzi growth, primary screen, luminescence, NIH3T3 host cells | AID 1885, 2009 | 1.4% of 300,000 active | inhibition, % (no concentration beside the values) | T. cruzi beta-gal in NIH3T3, 90 h;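 active means mean inhibition across valid replicates above about 55%, limit read from the data; inconclusive means mean below that limit but half or more replicates reach it; inactive means mean below it, under half of replicates reach it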;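 further: signal also drops with host cell toxicity which is not excluded here; 0% = plate median of DMSO wells and 100% = zero luminescence signal; higher percent means less beta-gal luminescence so fewer parasites; stock transfer was 50 nL into about 50 µL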
LANA-H2A inh: blockers of LANA interaction with H2A/H2B – biochemical, FP readout, HTS, primary screen; cell-free LANA-H2A/H2B peptide, fluorescence polarization; 0.6% of 320,000 active; inhibition, % (concentration not given with the values); in the data active means inhibition mostly above about 10%, no sharp cut-off; inactive means mostly below about 6.7%;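 further: stock transfer was 7.5 nL into about 10 µL; 0% = median of vehicle wells and 100% = median of positive control wells; one replicate is shown; the record names a cut of 25% in any replicate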
A1 inh: caspase 3/7 activation in MEF A1-2A-BIM cells, primary screen, A1 inhibitor project, cell-based, luminescence, HTS. Caspase-Glo 3/7 luminescence, 3 h; percent of clofoctol response, vehicle zero. caspase activation, % (test concentration not listed). 0.066% of 330,000 active. AID 2462, 2010;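 active means over half of replicate activation scores above 10%, or exactly half above 10 with the replicate mean above 10; inconclusive means replicate mean below 10 yet half the replicates above 10; inactive means over half of replicates below 10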;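 further: wells of about 30 µL received 50 nL stock; many hits fall short of the cut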
Calb FLC: C. albicans growth inhibition with fluconazole, primary screen, CaCi-2 strain, Alamar Blue fluorescence; C. albicans CaCi-2 (fluconazole-resistant clinical isolate) + fluconazole, 48 h; growth inhibition, % (concentration not given with the values); 0.57% of 300,000 active; AID 1979, 2009;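 active means most replicates above 75%; inconclusive means exactly half above 75%; inactive means most below 75%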;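 further: all wells also contain fluconazole at 8 µg/ml as a sub-toxic cotreatment; 0% = median of DMSO wells and 100% = median of geldanamycin control wells; wells of about 8 µL received 7.5 nL stock; the first replicate is given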
UCH37 DUB inh: inhibitors of human UCH37 deubiquitinase, primary screen, biochemical, Ub-AMC cleavage, fluorescence; Ubiquitin carboxyl-terminal hydrolase isozyme L5 (Homo sapiens), Q9Y5K5; purified proteasome/UCH37; inhibition, % (test concentration not listed); 0.33% of 330,000 active; AID 588478, 2011;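 active means mean of two replicates above 20%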;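 further: 0% = compound-free wells with enzyme and 100% = wells lacking proteasome; stock transfer was 100 nL into about 20 µL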
Target sequence (Q9Y5K5 whole entry, looked up): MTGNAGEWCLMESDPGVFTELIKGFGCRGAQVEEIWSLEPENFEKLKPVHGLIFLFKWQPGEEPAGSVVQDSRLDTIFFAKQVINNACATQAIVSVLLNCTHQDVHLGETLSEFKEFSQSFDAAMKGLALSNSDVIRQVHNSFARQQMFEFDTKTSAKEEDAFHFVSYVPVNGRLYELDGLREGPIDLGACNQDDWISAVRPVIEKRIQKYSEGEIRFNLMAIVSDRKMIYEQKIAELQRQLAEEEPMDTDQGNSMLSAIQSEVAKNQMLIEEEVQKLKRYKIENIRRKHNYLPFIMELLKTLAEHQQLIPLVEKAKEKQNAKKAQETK
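system = Proteasome-associated human UCH37 deubiquitinase | amount = 0.15 nM proteasome as dispensed | medium = pH 7.4 Tris-HCl (50 mM) with ovalbumin, ATP-MgCl2, DTT | incubation = 30 min preincubation with enzyme, 25 min cleavage at room temperature | detection = AMC fluorescence 355/460 nm | read-out basis = percent inhibition | controls = no-proteasome and no-compound wells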
Beta apoptosis: inhibitors of cytokine-induced beta cell apoptosis, primary screen, luminescence; INS-1E cytokine-induced death, ATP luminescence, 48 h; percent of positive-control rescue, neutral wells zero; protection from apoptosis, % (concentration not given with the values); 0.8% of 300,000 active;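 active means all replicates at 75% or more, or half of them and the mean; inconclusive means half reach 75% but not the mean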;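 further: 0% = cytokine-treated negative control wells and 100% = positive control rescue; higher means more ATP so stronger rescue from cytokine killing; wells of about 40 µL received 100 nL stock; the first replicate is given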
Starred values were filed as active, the others as inactive; ? = inconclusive; / = not tested or not shown. Outcome played no part in choosing rows (roughly 4.3% active in at least one column).

SMILES	Beta2AR agonist	RanGTP-Impb inh	T cruzi inh	LANA-H2A inh	A1 inh	Calb FLC	UCH37 DUB inh	Beta apoptosis
CCn1c(SCC(=O)Nc2cccc(OC)c2)nc2c(c1=O)SCC2	0	3.7	0	-1.6	-0.7	-11	2.3	/
Cc1ccccc1-n1nnnc1SCC(N)=O	2	1.8	-11	2.9	-0.6	2	1.8	-8
COc1ccc(OC)c(NC(=O)C2CCN(S(=O)(=O)c3cccs3)CC2)c1	1	0.9	1	-12	-0.3	-1	-1.0	0
O=C(NCCc1ccncc1)Nc1ccc(F)cc1	-7	5.3	-8	-1.3	-0.2	-6	-0.4	-2
CC(=O)c1ccc(NC(=O)Nc2ccc(S(=O)(=O)N3CCCC3)cc2)cc1	9	3.9	-13	-3.9	-0.4	21	-0.1	0
CCOC(=O)C1=C(C)N=C2SC(C)C(=O)N2C1c1ccc(OC(C)=O)c(OCC)c1 (stereo unspecified)	/	2.0	-1	-2.4	-0.7	0	-3.4	-2
CCN(c1ccccc1)S(=O)(=O)c1ccc(OCC(=O)Nc2cc(C)on2)cc1	2	1.1	-15	-1.2	1.5	-5	3.8	-6
O=Cc1cn(-c2ccccc2)nc1-c1ccccn1	0	-3.0	-7	1.5	0.8	-1	3.7	0
COC(=O)c1cc(OC)c(OC)cc1NC(=S)Nc1cc(Cl)ccc1OC	3	0.2	-5	-0.8	?	-23	1.8	-1
CC1(C(=O)NCC2CC2)C=CC2(CCCCC2)N1C(=O)c1ccccc1 (stereo unspecified)	-13	6.0	-18	1.4	?	3	0.8	-1
Cc1ccc(OCc2nnc(-c3ccc(Cl)cc3)o2)cc1	-1	7.4	-8	0.0	-0.2	3	0.7	-7
CCOc1ccc(Cl)cc1/C=N/O	-2	4.2	-5	0.3	0.1	-1	/	0
O=C(Nc1ccccc1)Nc1ccc(Br)cc1F	5	0.3	-24	-2.3	0.4	-13	3.2	2
O=C(COC(=O)c1ccncc1)c1ccc(Br)cc1	-3	1.1	-17	8.3	-0.7	-9	-0.9	-9
CCC(C)(C)NC(=O)CN(C(=O)CCC(=O)Nc1cc(C)ccn1)c1ccc2c(c1)OCCO2	3	-0.2	3	3.5	-1.2	-4	1.0	-2
CC(C)c1ccc(NCCC(=O)c2cccs2)cc1	-12	3.4	10	3.8	-2.4	-3	5.2	-16
CCSc1ccc([C@@H]2[C@@H]3C(=O)N(CC)C(=O)[C@@H]3[C@]3(C(=O)OC)CCCN23)cc1	-4	1.7	2	-3.4	0.2	-14	1.1	-4
COc1ccc(C(=O)NC2CCCN(Cc3ccc(Cl)cc3)C2)c(OC)c1 (stereo unspecified)	-1	-1.1	16	2.2	0.2	3	-0.5	/
COc1ccc(C(=O)OCC(=O)NC(C)(C)C)cc1[N+](=O)[O-]	5	5.1	-12	0.9	0.2	-16	0.0	-3
O=C(CNC(=O)c1ccccc1)Nc1ccsc1C(=O)O	0	-5.6	-7	2.2	-0.5	13	1.9	-2
COc1ccc(CNC(=O)C2CCCN2S(=O)(=O)c2ccc(F)cc2)cc1 (stereo unspecified)	-1	8.5	3	-1.4	-0.7	-5	2.6	1
COc1cc(CC(=O)Nc2sccc2C(N)=O)cc(OC)c1OC	10	1.1	-15	0.8	0.7	7	2.7	1
O=C(CCC(=O)N(CC(=O)NC1CCCCC1)c1ccc2c(c1)OCO2)Nc1ccccn1	-1	-1.1	8	-4.2	-0.2	-5	1.9	4
Cc1nc(CNS(=O)(=O)c2cccs2)cs1	-2	1.0	-28	-4.0	-0.2	1	3.9	-5
CCOC(=O)c1c(NC(=O)Cc2cccs2)sc2c1CCCC2	2	2.8	33	-5.8	-0.3	-9	2.3	4
Cc1c(C(c2cccc([N+](=O)[O-])c2O)c2c(C)n(C)n(-c3ccccc3)c2=O)c(=O)n(-c2ccccc2)n1C	-1	/	-8	6.0	1.7	-5	8.1	-1
CC(C)(C)CN1CCN(Cc2c[nH]c3ccccc23)CC1CCO (stereo unspecified)	5	3.6	-7	4.5	0.1	0	4.0	-4
COc1ccc(N(CC(=O)NCc2ccco2)S(C)(=O)=O)cc1	-3	0.7	6	-1.8	0.2	9	3.8	-1
O=[N+]([O-])c1ccc(/C=N\N2CCN(c3ccc(Cl)cc3)CC2)cc1	1	-2.6	14	-7.4	0.1	-1	/	-8
COc1ccc(-n2nnc3c(SC(C(C)=O)C(=O)N(C)C)ncnc32)cc1 (stereo unspecified)	4	2.6	-15	-5.2	1.1	-2	-1.2	/
O=S(=O)(c1ccccc1)N(CC(O)CN1CCOCC1)c1ccccc1 (stereo unspecified)	17	6.7	-17	6.1	0.0	-1	1.0	-6

Structures above containing nitrogen in an aromatic ring (13):
SMILES	Beta2AR agonist	RanGTP-Impb inh	T cruzi inh	LANA-H2A inh	A1 inh	Calb FLC	UCH37 DUB inh	Beta apoptosis
CCn1c(SCC(=O)Nc2cccc(OC)c2)nc2c(c1=O)SCC2	0	3.7	0	-1.6	-0.7	-11	2.3	/
Cc1ccccc1-n1nnnc1SCC(N)=O	2	1.8	-11	2.9	-0.6	2	1.8	-8
O=C(NCCc1ccncc1)Nc1ccc(F)cc1	-7	5.3	-8	-1.3	-0.2	-6	-0.4	-2
CCN(c1ccccc1)S(=O)(=O)c1ccc(OCC(=O)Nc2cc(C)on2)cc1	2	1.1	-15	-1.2	1.5	-5	3.8	-6
O=Cc1cn(-c2ccccc2)nc1-c1ccccn1	0	-3.0	-7	1.5	0.8	-1	3.7	0
Cc1ccc(OCc2nnc(-c3ccc(Cl)cc3)o2)cc1	-1	7.4	-8	0.0	-0.2	3	0.7	-7
O=C(COC(=O)c1ccncc1)c1ccc(Br)cc1	-3	1.1	-17	8.3	-0.7	-9	-0.9	-9
CCC(C)(C)NC(=O)CN(C(=O)CCC(=O)Nc1cc(C)ccn1)c1ccc2c(c1)OCCO2	3	-0.2	3	3.5	-1.2	-4	1.0	-2
O=C(CCC(=O)N(CC(=O)NC1CCCCC1)c1ccc2c(c1)OCO2)Nc1ccccn1	-1	-1.1	8	-4.2	-0.2	-5	1.9	4
Cc1nc(CNS(=O)(=O)c2cccs2)cs1	-2	1.0	-28	-4.0	-0.2	1	3.9	-5
Cc1c(C(c2cccc([N+](=O)[O-])c2O)c2c(C)n(C)n(-c3ccccc3)c2=O)c(=O)n(-c2ccccc2)n1C	-1	/	-8	6.0	1.7	-5	8.1	-1
CC(C)(C)CN1CCN(Cc2c[nH]c3ccccc23)CC1CCO (stereo unspecified)	5	3.6	-7	4.5	0.1	0	4.0	-4
COc1ccc(-n2nnc3c(SC(C(C)=O)C(=O)N(C)C)ncnc32)cc1 (stereo unspecified)	4	2.6	-15	-5.2	1.1	-2	-1.2	/

Assay outcomes (PubChem)
